Vaccinia Venus: vaccinia inhibition (Venus reporter) | actives 0.46% (n = 330,000) | Vaccinia virus Venus reporter expression, fluorescence | AID 720580 | Potency, µM (top dose mostly 36.5 µM), for the others: at the top dose activity change, negative = inhibition, actives largely listed as inhibitors; active means well fitted inhibition curve with a large enough effect; inconclusive means small, poorly fitted or top-dose-only effect; inactive means no such curve, though single readings can be large or run the other way; tested in A549 cells; also: nearly all actives have a fitted effect of over 30% in size; inactives centre near -10
Vaccinia mCherry: inhibitors of vaccinia virus infection (mCherry reporter signal) | Vaccinia virus mCherry reporter infection, fluorescence; about a quarter of the inactives have no number | Potency, µM (series often up to 36.5 µM), inactives show top-dose activity change, negative = inhibition, usual class: inhibitors | actives 0.63% (n = 310,000); active = well fitted inhibition curve with a large enough effect; inconclusive = small, poorly fitted or top-dose-only effect; inactive = no such curve, though single readings can be large or run the other way; tested in A549 cells; also: nearly all actives have a fitted effect of over 35% in size; inactives centre near -10
Numbers without * were called inactive; i = inactive; ? = inconclusive; · = not tested or not shown; [ ] = remark or other dose. % is scaled to controls: 0 for no effect and ±100 for the full control effect; potency is read from the fitted curve at half-maximal effect.

Compound | Vaccinia Venus | Vaccinia mCherry
CC(C)(C)S(=O)N1Cc2cc(C(=O)NCc3ccc4c(c3)OCO4)nc(-c3cccc(-c4ccncc4)c3)c2[C@H]1CCO (stereo partly specified) | -13% | i
CC(C)COCC(O)CC(Cc1ccccc1)C(=O)NN (stereo unspecified) | 2% | 8%
O=C(Cc1ccc(S(=O)(=O)N2CCOCC2)s1)Nc1ccccc1N1CCOCC1 | 1% | -14%
CC(=O)c1ccc(S(=O)(=O)NC2CCSc3ccccc32)cc1 (stereo unspecified) | -8% | -19%
O=[N+]([O-])c1cc(S(=O)(=O)N2CCOCC2)ccc1N1CCNCC1 | -10% | -13%
CN(C)c1ccc(N/C=C/C(=O)c2ccco2)cc1 | -7% | -12%
CC(=O)Nc1cccc(-c2nn[nH]n2)c1 | -10% | -3%
Cc1oc2ncn(C)c(=O)c2c1C(=O)NCCCN1CCCC(C)C1 (stereo unspecified) | -18% | -5%
COc1cc(OC)c(NC(=O)C2CCCN(c3ncnc4c3nc3n4CCCCC3)C2)cc1Cl (stereo unspecified) | -21% | -5%
O=C(NNC(=S)Nc1ccc(Cl)cc1Cl)c1ccncc1 | -4% | i
O=C(NCCSSCCNC(=O)c1ccccc1)c1ccccc1 | ? | ?
CC(C)CCNC(=O)CCCn1c(=O)c2cccn2c2ccccc21 | -11% | -2%
O=S(=O)(Nc1cc(S(=O)(=O)N2CCOCC2)ccc1N1CCOCC1)c1ccc2c(c1)OCCO2 | -10% | i
COc1cc2c(cc1OC)C(C(C(=O)N(CCc1ccc(OC)c(OC)c1OC)CCc1ccc(OC)c(OC)c1OC)c1ccccc1)=NCC2 (stereo unspecified) | -15% | 12%
O=C(CCCN1C(=O)S/C(=C\c2ccccc2)C1=O)NNC(=O)c1ccccc1O | -7% | -3%
CCN1CCN(c2ncnc3c2cnn3-c2ccccc2)CC1 | 3% | 2%
Cn1cc(C(=O)c2cccc(Cl)c2)cc1C#N | -14% | -16%
COCCNc1ccc(-c2n[nH]c(=O)c3ccccc23)cc1[N+](=O)[O-] | -17% | -24%
O=C(Nc1ccc(F)cc1F)c1cc2nc3c(c(C(F)(F)F)n2n1)CCCC3 | -7% | -2%
CN(C)C(CNC(=O)c1cc(-c2ccco2)nc2ccccc12)c1ccccc1 (stereo unspecified) | 1% | -9%
CC(C)c1c(O)nc(SCCOc2ccc(Cl)cc2)[nH]c1=O | -4% | -12%
Cc1cc(C(F)(F)F)nc(CCNCc2c(C(=O)N3CCCC3)nc3ccccn23)n1 | -1% | i
N#CCc1nc2n(n1)Cc1ccccc1-2 | -15% | -14%
Cc1cc(C)cc(N(C(=O)c2csnn2)C(C(=O)NC2CCCC2)c2cccnc2)c1 (stereo unspecified) | -8% | -21%
COc1ccc(CNC(=O)COC(=O)CCOc2ccc(C)cc2)cc1 | -11% | -5%

Profiles, looked up by structure:
Entry for CC(C)COCC(O)CC(Cc1ccccc1)C(=O)NN (stereo unspecified) → Vaccinia Venus = 2%; Vaccinia mCherry = 8%
Entry for O=[N+]([O-])c1cc(S(=O)(=O)N2CCOCC2)ccc1N1CCNCC1 → Vaccinia Venus = -10%; Vaccinia mCherry = -13%
Entry for O=S(=O)(Nc1cc(S(=O)(=O)N2CCOCC2)ccc1N1CCOCC1)c1ccc2c(c1)OCCO2 → Vaccinia Venus = -10%; Vaccinia mCherry = i

New compounds follow:
Compound | Vaccinia Venus | Vaccinia mCherry
CCn1nc(C)c(CNC(=O)CCc2nnc(-c3ccc(C(C)=O)s3)o2)c1C | -9% | i
Cc1cc2oc(=O)cc(CN(C)Cc3ccccc3Cl)c2cc1C | -10% | i
Nn1c(SCC(=O)NC2CCCCCC2)nnc1C(F)(F)F | -9% | i
Cc1cc(NC(=O)Nc2ccc(Cl)cc2)n(-c2ccccc2)n1 | -21% | -24%
CCOC(=O)c1c(C)[nH]c(C)c1C(=O)COC(=O)c1cccc(S(=O)(=O)N(CC)CC)c1 | -28% | ?
CCCCC(c1nnnn1CS(=O)(=O)c1ccc(C)cc1)N1CCN(C)CC1 (stereo unspecified) | -6% | -6%
COc1ccccc1/C=C/c1ccc2ccccc2n1 | -18% | 11%
CCc1ccccc1NC(=O)CSc1nnc2ccc3ccccc3n12 | -6% | -10%
CCC(Oc1ccccc1)C(=O)OCC(=O)N(CC)c1c(N)n(Cc2ccccc2)c(=O)[nH]c1=O (stereo unspecified) | -10% | 0%
C[C@@H]1CN([C@H](C)CO)C(=O)c2cc(Br)cnc2O[C@@H]1CN(C)Cc1ccc(-c2ccccc2)cc1 | -22% | -1%
O=C(CCN1C(=O)c2ccccc2C1=O)c1ccccc1 | -11% | i
CC(C)CNC(=O)CN(c1cccc(Cl)c1)S(C)(=O)=O | -12% | i
CC1CC(C)(C)N2C(=O)C(=C(C#N)C#N)c3cccc1c32 (stereo unspecified) | -2% | -7%
Cc1ccccc1CSc1nnc(-c2ccccc2)c(=O)[nH]1 | -13% | i
CCN(CC)c1ccc(C(=O)N/N=C/c2ccc(N3CCOCC3)cc2)cc1 | 1% | -6%
CCOc1ccccc1CN1CCNC(=O)C1CC(=O)N(C)Cc1cnccn1 (stereo unspecified) | -11% | -1%
O=C(COc1nsnc1N1CCOCC1)N1CCOCC1 | -3% | -12%
COc1ccc(CCNC(=O)c2cc(-c3ccncc3)nc3c(Cl)cccc23)cc1OC | -5% | -7%
CCC(Sc1nc(C)cc(C)n1)C(=O)Nc1cc(C)on1 (stereo unspecified) | -11% | i
CC1=NN(c2ccccc2)C(=O)/C1=C\c1sccc1C | 5% | -14%
Cc1cc(C)c(C(=O)C(C)OC(=O)Cn2cnc3c2c(=O)n(C)c(=O)n3C)cc1C (stereo unspecified) | -12% | -14%
CC1CCCCN1c1ncnc(N)c1[N+](=O)[O-] (stereo unspecified) | -14% | -24%
C=CCc1c(NCCO)nc(C)[nH]c1=O | 3% | -12%
O=C(NCCN1CCOCC1)c1ccc(Cl)cc1O | -6% | 0%
COc1ccccc1N1CCN(CC(=O)Nc2cccc(F)c2)CC1 | -14% | ·
COCCCNC(=O)C12CCC(C)(C(=O)C1)C2(C)C (stereo unspecified) | -9% | -17%
O=C(C[n+]1cccc2cc(Cl)ccc21)c1cccc([N+](=O)[O-])c1 | 55%[activator] | 14%
Fc1ccccc1-c1nc2ncccc2o1 | -4% | 1%
O=C(COC(=O)C1CC2CCCC(C1)C2=O)Nc1ccccc1 (stereo unspecified) | -3% | -12%
O=c1c(S(=O)(=O)c2ccc(Cl)cc2)cn(Cc2ccccc2F)c2ccc(F)cc12 | -8% | -19%
Cn1c(SCC(=O)NC2CCCCC2)nnc1-c1cccnc1 | -10% | -2%
N#Cc1cc(C(=O)c2cc(F)ccc2O)cn(Cc2ccccc2)c1=O | -21% | ?
COc1ccc(CCNC(=O)COc2ccc(-c3ccc(C#N)cc3)cc2)cc1 | -4% | -6%
N#CCC(=O)N1CCN(C(c2ccccc2)c2ccccc2)CC1 | -7%[7.34 µM] | i[7.34 µM]
O=C(NC1CC2CCCC(C1)N2C(=O)NC1CCCCC1)c1ccc(F)cc1 (stereo unspecified) | 12% | 7%
CCOC(=O)c1c(C)[nH]c(C)c1C(=O)COC(=O)/C=C/c1cccc(Cl)c1 | -15% | i
O=C(O)c1cc(Cl)c(Cl)cc1C(=O)N1CCOCC1 | -10% | -11%
Cc1cc(C)c2c(CC(=O)Nc3c(C(=O)c4ccc(F)cc4)oc4ccccc34)coc2c1 | -5% | -7%
COc1ccc(Cl)cc1S(=O)(=O)NC(C)C(=O)NCc1ccc2c(c1)OCO2 (stereo unspecified) | -1% | -1%
CCOc1ccc(S(=O)(=O)N2CCOCC2)cc1NC(=O)CSCC(=O)Nc1ccc(OC)cc1 | -9% | -16%
Cc1cc(C(=O)N2CCN(S(=O)(=O)c3ccccc3C#N)CC2)c(C)o1 | 3% | -8%
COc1ccccc1Nc1nc(N)nc(CN2CCCCC2)n1 | -6% | -14%
COc1cccc(Cn2c(CNS(=O)(=O)c3ccc(C(C)(C)C)cc3)nc3cccnc32)c1 | -10% | -15%
Cc1ccc(CNC(=O)CCS(=O)(=O)c2cccc3nsnc23)cc1 | -7% | -7%
C=C(C)Cn1c(C)cc(C)c(S(=O)(=O)c2ccccc2C)c1=O | -18% | ·
CC(NC(=O)COc1cccc(Br)c1)C(=O)O (stereo unspecified) | -4% | -16%
COc1ccc(CN(C)C(=O)[C@H]2O[C@@H](n3cnc4c(N)ncnc43)[C@H](O)[C@@H]2O)cc1OC | 1% | 16%
C/C(O)=C\c1nc2ccccc2oc1=O | -3% | -16%
Cc1ccsc1/C=N/NC(=O)c1ccc(Cn2cc(Br)cn2)o1 | -18% | -16%
Cc1ccc(CN2CCN(Cc3cn(C)nc3-c3ccccc3)CC2CCO)o1 (stereo unspecified) | 19% | i

4 entries from above, ordered by length of the SMILES, highest first:
Compound | Vaccinia Venus | Vaccinia mCherry
O=c1c(S(=O)(=O)c2ccc(Cl)cc2)cn(Cc2ccccc2F)c2ccc(F)cc12 | -8% | -19%
N#CCC(=O)N1CCN(C(c2ccccc2)c2ccccc2)CC1 | -7%[7.34 µM] | i[7.34 µM]
COCCCNC(=O)C12CCC(C)(C(=O)C1)C2(C)C (stereo unspecified) | -9% | -17%
C/C(O)=C\c1nc2ccccc2oc1=O | -3% | -16%

Going on with the list:
Compound | Vaccinia Venus | Vaccinia mCherry
CCN1C(=O)c2ccccc2S(=O)(=O)c2ccc(C(=O)NCc3ccccc3Cl)cc21 | -13% | -13%
COCCCNc1nc2c(c(=O)n(Cc3ccc(F)cc3)c(=O)n2C)n1C | -6% | -11%
Cc1ccc(C(=O)NCC(=O)NCCSc2ccc(Br)cc2)cc1 | -22% | -3%
Cc1ccc(-c2csc(C(O)(c3ccccc3)C(F)(F)F)n2)cc1C (stereo unspecified) | 6% | -22%
COc1ccc(C(C(=O)NCc2ccccc2)N(C(=O)c2snc(C(N)=O)c2N)c2ccccc2OC)cc1 (stereo unspecified) | -25% | i
CC(=O)Oc1ccc(C(=O)Nc2ccccc2C(=O)N2CCCCC2)cc1 | 0% | i
O=C(Nc1cccc(Cc2ccccc2)c1)Nc1ccc2nc([C@@H]3O[C@H](CO)[C@@H](O)[C@H](O)[C@H]3O)[nH]c2c1 | -9% | i
O=C(CSc1ccc(-c2cccc([N+](=O)[O-])c2)nn1)NC1CCCC1 | -3% | 6%
COc1cccc(-c2ccc(CN3C(C(C)C)C(=O)N(Cc4cn(CCC5OCCO5)nn4)CCS3(=O)=O)cc2)c1OC (stereo unspecified) | -11% | -1%
O=C(O)CCn1cnc2onc(-c3cc(F)cc(F)c3)c2c1=O | -3% | 13%
Cc1c(Cl)cccc1NC(=O)C(=O)NCCc1csc2nc(-c3ccccc3F)nn12 | -13% | -3%
COc1ccc(C(C)(NC(C)=O)c2nc(-c3cccc4cccnc34)cs2)cc1 (stereo unspecified) | 1% | 13%
CCOC(=O)C1CCN(C(=S)NC(=O)c2cccs2)CC1 | -1% | 10%
CCCN(CC(=O)Nc1ccccc1C)C(=O)c1ccc(N2CCOCC2)c([N+](=O)[O-])c1 | -5% | -12%
CCC(c1nnnn1-c1ccc2c(c1)OCCO2)N1CCc2ccccc2C1 (stereo unspecified) | -4% | 19%
Cc1c(NS(=O)(=O)c2cccc(C(=O)NCc3ccccc3)c2)c(=O)n(-c2ccccc2)n1C | -15% | -7%
CCOC(=O)c1nn(-c2ccccc2)c(C#N)c1N | -16% | -14%
O=C(NCCCc1nc2ccccc2n1Cc1cccc(Cl)c1)C1CCCCC1 | -26% | -18%
COc1ccccc1C/C(N)=N/OC(=O)COc1cccc(C)c1C | -14% | -7%
CCOc1ccc(NC(=O)c2cc3cc(C)ccc3n2C)cc1 | -14% | -7%
CCOc1ccc(NC(=S)N2CCN(S(C)(=O)=O)CC2)cc1 | -6% | i
CCN1C(=NCc2cccc(Cl)c2)N[C@@H](c2cccc(C(F)(F)F)c2)C(C(=O)OC)=C1C | ? | -15%
CCOC(=O)C(=NC1CCS(=O)(=O)C1)NNc1ccccc1Cl (stereo unspecified) | -8% | i
COc1cc(Cl)c(C)cc1NC(=O)Cc1ccc(OC)c(OC)c1 | 0% | 0%
COc1ccc(/C=C2\N=C(C)N(c3ccc(C(=O)O)cc3)C2=O)cc1OC | -5% | -15%
COc1ccc(OCc2nc3ccccc3[nH]2)cc1 | -12% | -17%
COc1cc(NC(=O)c2ccc(=O)[nH]n2)cc(OC)c1OC | -5% | i
Cc1ccc(C)c(S(=O)(=O)N2CCCC2CNC(=O)C(=O)NC2CC2)c1 (stereo unspecified) | -20% | -1%
COc1cc(/C=C2\C(=O)N(c3cccc(C(=O)O)c3)N=C2C)ccc1OCc1ccccc1 | -8% | -1%
COc1cc(NC(=O)CCn2cnc3ccccc3c2=O)cc(OC)c1 | -4% | -7%
CCOC(=O)C1=C2c3ccc4ccccc4c3CC(C)(C)N2C(=O)C1=O | -10% | -17%

Compound activity deposited in PubChem BioAssay by National Center for Advancing Translational Sciences (NCATS).
